MLL AF4-AF9 inh – inhibitors of human MLL-AF4/AF9 interaction; P42568; AlphaScreen, biotin-AF4 peptide binding to FLAG-AF9; inhibition, % at 10 µM; 350,000 tested, 0.47% active; AID 651704;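 active means every replicate reaching a set inhibition limit, whatever the replicate mean, cut at about 25% in these data; inconclusive means mean inhibition reaches that limit but some replicates miss it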;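 further: 0% = plate neutral control median and 100% = total signal loss; the record names both 10 and 1 µM as test concentration; the first replicate is given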
Target sequence (P42568 whole entry, looked up): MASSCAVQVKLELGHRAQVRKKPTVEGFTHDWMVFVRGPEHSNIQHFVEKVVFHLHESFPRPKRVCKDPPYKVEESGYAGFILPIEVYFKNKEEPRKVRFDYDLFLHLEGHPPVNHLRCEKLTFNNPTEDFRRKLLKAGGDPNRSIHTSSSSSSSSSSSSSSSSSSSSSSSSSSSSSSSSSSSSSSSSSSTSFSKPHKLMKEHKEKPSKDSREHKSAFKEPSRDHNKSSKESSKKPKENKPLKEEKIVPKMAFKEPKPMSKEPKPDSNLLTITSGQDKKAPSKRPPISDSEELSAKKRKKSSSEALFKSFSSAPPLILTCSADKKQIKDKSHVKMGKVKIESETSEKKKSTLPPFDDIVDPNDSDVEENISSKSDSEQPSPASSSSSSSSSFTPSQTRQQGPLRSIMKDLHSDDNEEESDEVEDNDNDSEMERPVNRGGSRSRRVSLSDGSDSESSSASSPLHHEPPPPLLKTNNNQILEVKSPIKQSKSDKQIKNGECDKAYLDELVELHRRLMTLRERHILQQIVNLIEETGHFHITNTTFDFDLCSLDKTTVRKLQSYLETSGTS
Beta apoptosis – blocks beta cell apoptosis; 300,000 tested, 0.8% active; INS-1E cytokine-induced death, ATP luminescence, 48 h; percent of positive-control rescue, neutral wells zero; protection from apoptosis, % (test concentration not listed);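 active means all replicates at 75% or more, or half of them and the mean; inconclusive means half reach 75% but not the mean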;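 further: 0% = cytokine-treated negative control wells and 100% = positive control rescue; higher means more ATP so stronger rescue from cytokine killing; wells of about 40 µL received 100 nL stock; the first replicate is given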
T cruzi repl – blocks replication of Trypanosoma cruzi | T. cruzi beta-gal in NIH3T3, luminescence, 90 h | inhibition, % (concentration not given with the values) | 300,000 tested, 1.4% active | AID 1885;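 active means mean inhibition across valid replicates above about 55%, limit read from the data; inconclusive means mean below that limit but half or more replicates reach it; inactive means mean below it, under half of replicates reach it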;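 further: signal also drops with host cell toxicity which is not excluded here; 0% = plate median of DMSO wells and 100% = zero luminescence signal; higher percent means less beta-gal luminescence so fewer parasites; stock transfer was 50 nL into about 50 µL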
Vif A3G – inhibitors of Vif binding to APOBEC3G peptide, primary screen, biochemical, TR-FRET, GST-Vif 1-94, biotin-A3G peptide, dose response retest (AID 1117319) | TR-FRET GST-Vif / biotin-A3G peptide binding; higher % means a stronger effect; test concentration not given here; strong numbers were not always called active | inhibition, %; hits with a dose series show IC50 in µM | 260,000 tested, 0.57% active;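 active means above the screen mean plus three standard deviations and confirmed in dose response; inconclusive means results disagree or hit not tested in dose response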;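 further: Vif residues 1-94 fused to GST binding biotinylated APOBEC3G peptide 110-148; 0% = full assay without inhibitor and 100% = GST in place of GST-Vif; retest series ran down from 100 µM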
Ecoli rRNA inh – inhibitors of bacterial rRNA selective over humanized ribosomes. E. coli WT GFP vs humanized-ribosome RFP mutants, fluorescence, 24 h; stronger effect = lower value; DMSO median 0, no signal -100. GFP signal change (wild-type ribosome), % (concentration not given with the values). 350,000 tested, 1.6% active. AID 720706;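 active means significant combined selectivity score with lowered wild-type GFP, culture density cut under 30%, mutant RFP and density less affected; inactive means any of these conditions unmet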; further: one replicate is shown; some compounds called inactive have numbers as strong as hits
RanGTP-Imp inh – inhibitors of RanGTP-importin-beta interaction, primary screen, biochemical, FRET, CFP-Ran, YFP-importin-beta, homogeneous | cell-free CFP-Ran/YFP-importin-beta FRET ratio | inhibition, % (no concentration beside the values) | 300,000 tested, 1.1% active;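 active means most replicates above 15%; inconclusive means exactly half above 15%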;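 further: 0% = DMSO wells and 100% = Ran loaded with GDP instead of GTP; wells of about 40 µL received 100 nL stock; the first replicate is given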
Bfl-1 A1 inh – inhibitors of the anti-apoptotic protein A1, read as caspase activation. MEF A1-2A-BIM cells, Caspase-Glo 3/7 luminescence, 3 h; percent of clofoctol response, vehicle zero. caspase activation, % (test concentration not listed). 330,000 tested, 0.066% active. AID 2462;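 active means over half of replicate activation scores above 10%, or exactly half above 10 with the replicate mean above 10; inconclusive means replicate mean below 10 yet half the replicates above 10; inactive means over half of replicates below 10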;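 further: wells of about 30 µL received 50 nL stock; many hits fall short of the cut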
Calb FLC – C. albicans growth modulation with fluconazole. C. albicans CaCi-2 (fluconazole-resistant clinical isolate) + fluconazole, Alamar Blue growth, 48 h. growth inhibition, % (concentration not given with the values). 300,000 tested, 0.57% active;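 active means most replicates above 75%; inconclusive means exactly half above 75%; inactive means most below 75%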;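 further: all wells also contain fluconazole at 8 µg/ml as a sub-toxic cotreatment; 0% = median of DMSO wells and 100% = median of geldanamycin control wells; wells of about 8 µL received 7.5 nL stock; the first replicate is given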
Ecoli rRNA inh OD600 – second read-out of Ecoli rRNA inh, no call of its own (marks repeat the call); OD600 change, %; measured here: OD600 growth;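 optical density of the mix in the first replicate; 0 = DMSO median and -100 = no signal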
Ecoli rRNA inh RFP – also measured in Ecoli rRNA inh; calls as there; RFP signal change, %; measured here: RFP humanized mutant strains;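 first replicate; 0 = DMSO median and -100 = no signal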
Numbers without * were called inactive; ? = inconclusive; . = not tested or not shown; & = joins results of further samples. These rows are one share of the data; the hit share may differ from the screen's.

SMILES | MLL AF4-AF9 inh | Beta apoptosis | T cruzi repl | Vif A3G | Ecoli rRNA inh | Ecoli rRNA inh OD600 | Ecoli rRNA inh RFP | RanGTP-Imp inh | Bfl-1 A1 inh | Calb FLC
CC(C)(C)c1ccc(C(=O)N/C(=C\c2cccc([N+](=O)[O-])c2)C(=O)Nc2cccc(C(=O)O)c2)cc1 | 4.0 | -7.4 | -1.2 | -2.8% | -2.6 | 1.0 | -2.5 | 1.7 | -0.7 | 15.2
CCOC(=O)N1CCN(CC(O)c2ccc3c(c2)CCN3)CC1 (centres undefined) | 9.3 | -3.2 | 6.6 | 12.4% | 13.4 | 16.9 | 0.3 | 4.7 | 2.4 | -68.6
Cc1cccc(NC(=S)N2CCN(Cc3ccc4c(c3)OCO4)CC2)c1C | . | -3.5 | -14.8 | 24.4% | . | . | . | -1.5 | -1.2 | -6.7
CC1CN(S(=O)(=O)c2cccc(-c3csc(-c4ccccc4)n3)c2)CC(C)O1 (centres undefined) | . | 4.0 | 17.3 | 28.6% | . | . | . | 0.9 | 2.0 | 19.6
Cc1ccc2nc(Cl)c(/C=N/NC(=O)c3ccccc3O)cc2c1 | 5.8 | -2.5 | -15.4 | . | -9.5 | -7.6 | -2.1 | 2.1 | 0.6 | 3.3
CS(=O)(=O)N(CC(=O)N1CCN(C(c2ccccc2)c2ccccc2)CC1)C1CCCCC1 | . | 4.6 | 5.2 | -3.7% | . | . | . | 0.7 | -0.8 | -1.4
COC(=O)c1c(-c2cccc(C)c2)csc1NC(=O)C1CCCO1 (centres undefined) | -4.2 | -1.4 | 15.5 | -4.9% | -27.6 | -40.0 | -4.4 | -5.2 | -0.4 | -3.6
Cn1ncc(-c2ccno2)c1C(=O)O | -2.1 | -3.2 | -8.2 | -9.7% | 9.1 | 8.1 | -1.6 | -1.3 | 0.1 | -5.5
O=C(CN1C(=O)S/C(=C\C=C\c2ccccc2)C1=O)Nc1ccc(O)cc1 | . | 16.4 | -14.7 | 4.3% | . | . | . | -4.7 | -1.2 | -1.4
CC1CCCC(C)N1/N=C/c1ccc([N+](=O)[O-])cc1 (centres undefined) | 15.7 | 1.3 | 11.5 | 1.1% | 2.0 | 7.7 | -0.5 | 1.5 | -0.1 | 6.4
CC(=O)Oc1ccc(OC(C)=O)c(S(=O)(=O)c2ccc(C)c(C)c2)c1 | -1.2 | -2.1 | 1.1 | -8.8% | -4.5 | 6.1 | -5.4 | 0.2 | 0.9 | 10.1
Cc1nn(Cc2ccccc2Cl)c(C)c1C(=O)Nc1nnc(C2CC2)s1 | . | . | -1.9 | 6.2% | . | . | . | -2.3 | 0.4 | -4.4
COc1ccc([N+](=O)[O-])cc1NC(=O)C(C)OC(=O)CC1CCCC1 (centres undefined) | 4.9 | -1.5 | . | 1.0% | -11.1 | -9.6 | 4.5 | . | -1.1 | .
O=C(CN1C(=O)NC2(CCCCC2)C1=O)NCCc1ccccc1 | -2.4 | -0.9 | . | . | -4.5 | 3.4 | -4.5 | . | 0.9 | .
CCC(Oc1ccccc1)C(=O)Nc1ncc([N+](=O)[O-])s1 (centres undefined) | -3.0 | 19.9 | 42.8 | . | -55.7 | -75.7 | -14.9 | -0.5 | 1.1 | 93.9*
CC1(C)CC(c2nc(-c3ccc([N+](=O)[O-])cc3)cs2)CCO1 (centres undefined) | 12.3 | -1.9 | 14.9 | 1.9% | -41.6* | -24.2* | -6.5* | 0.1 | -0.8 | -24.6
C[C@]12CC[C@@H]3c4ccc(OC(=O)c5ccccc5)cc4CC[C@H]3[C@@H]1CC[C@@H]2O | -2.4 | 3.4 | -1.7 | . | -0.2 | 10.8 | -0.4 | 6.7 | -0.1 | .
COc1ccc(CC(=O)N[C@@H](CCSC)c2nc3ccccc3[nH]2)cc1 | 2.5 | 0.0 | -21.6 | -8.1% | -0.2 | -0.9 | 1.7 | -1.5 | -0.2 | -8.3
Cc1[nH]c2ccccc2c1C(=O)CSc1ncn[nH]1 | . | 0.6 | -10.9 | . | . | . | . | -0.7 | 1.8 | -1.1
CCc1cc(C(=O)Nc2ccc(C)cc2Br)cs1 | . | . | -8.8 | . | . | . | . | 2.2 | -1.8 | -6.4
CCCn1c(=O)c(C(=O)Nc2cc(C)ccn2)c(O)c2ccccc21 | -3.9 | -2.8 | -12.9 | -5.2% | 7.2 | 22.9 | -2.5 | 5.3 | -0.5 | -0.5
Cn1c(=O)c2[nH]c(N3CCN(c4ccccn4)CC3)nc2n(C)c1=O | . | -3.0 | -3.7 | . | . | . | . | 0.5 | -0.6 | -2.8
COc1cccc(OC)c1OCCCOc1cccc2cccnc12 | -0.3 | 5.4 | -6.6 | 10.0% | -28.8* | -14.4* | 4.0* | 1.0 | -5.2 | 1.2
O=C(CSc1nnc2nnc3ccccc3n12)N1CCOCC1 | -0.1 | -10.6 | 52.7 | . | -24.6* | -6.1* | -0.1* | -26.1 | 0.9 | 16.1
C=C1C[C@H](O[C@@H]2O[C@H](CO)[C@@H](O)[C@H](O)[C@H]2O)[C@@H]2[C@H](OC(=O)[C@H]2C)[C@H]2[C@H](C)[C@@H](O)C[C@@H]12 | 0.0 | 2.6 | . | . | 7.5 | 7.7 | -2.5 | . | 0.7 | .
COc1ccc(CC(=O)N/N=C/c2ccc(Cl)s2)cc1OC | -1.5 | -5.7 | -10.8 | 1.5% | 2.2 | -18.1 | 13.9 | 5.0 | 0.1 | -6.5
CN(Cc1ccon1)C(=O)CCc1nnc(Cc2ccc(-c3ccccc3)cc2)o1 | 0.6 | -3.8 | 1.8 | 4.8% | -19.8 | -15.7 | -1.3 | 0.1 | -0.9 | -3.9
O=C(CNC(=O)c1ccc(Cl)cc1Cl)OCc1nnc(-c2ccccc2Br)o1 | -2.5 | 3.0 | . | 61.0% | 7.8 | 7.7 | 2.4 | . | 0.0 | .
S=c1nc(-c2ccccc2)[nH]c2ccccc12 | -0.3 | 6.1 | -12.7 | -23.9% | 17.1 | 13.0 | 1.4 | -1.3 | 0.3 | 6.0
Cc1ccc(S(=O)(=O)Nc2cccc(N(C)S(C)(=O)=O)c2)cc1[N+](=O)[O-] | -0.6 | -4.4 | -14.7 | -3.1% | 1.0 | 1.8 | 0.7 | 1.2 | -0.3 | -5.0
COc1ccc(NS(=O)(=O)c2cc3c4c(c2)CCN4C(=O)CC3)cc1OC | . | 5.0 | 0.8 | -2.9% | . | . | . | 1.1 | -0.1 | -4.0
CCOP(=O)(OCC)C(NC(=O)Nc1ccc(Cl)cc1)c1ccccc1 (centres undefined) | . | -3.5 | 7.6 | 4.4% | . | . | . | -2.9 | -0.1 | -15.8
CC1CCCC(NC(=O)c2cccc(N3CCCC3=O)c2)C1C (centres undefined) | -0.6 | -3.6 | 8.5 | . | 2.8 | 2.7 | -0.8 | 6.4 | -0.1 | 2.2
Cc1ccc(C(=O)Nc2nnc(C)s2)cc1 | -3.4 | 0.1 | -19.1 | -3.5% | 14.4 | 21.4 | 2.7 | -0.3 | -2.3 | 1.4
N#CCCN1CCN(S(=O)(=O)c2ccc(S(=O)(=O)NCC3CCCO3)cc2)CC1 (centres undefined) | -1.6 | -2.2 | -9.9 | -0.2% | 4.8 | 8.0 | -1.6 | -2.2 | -0.4 | 3.0
Cc1ccc(NC(=O)C(NC2CCCc3ccccc32)c2ccccc2)cc1Cl (centres undefined) | . | 2.1 | 2.1 | -2.8% | . | . | . | -1.6 | 0.2 | -19.0
CCC(=O)OCCn1c(=O)c2ccccc2c2ccccc2c1=O | -0.7 | -2.7 | 1.8 | -0.8% | -2.5 | -6.9 | 0.9 | -4.4 | -0.4 | -7.4
CCOc1ccc(NC(=O)CCc2nnc3ccc(N4CCC(C)CC4)nn23)cc1 | 2.1 | 6.9 | -3.9 | . | -20.4* | -11.3* | 4.9* | -1.6 | 1.7 | 16.3
O=[N+]([O-])c1ccc(N2CCCCC2)c(-c2nn[nH]n2)c1 | -1.0 | -1.8 | 6.3 | 6.2% | 24.5 | 12.0 | 3.0 | 1.2 | -0.7 | -9.7
COc1ccc(/C=N/Nc2ccc(C(=O)O)cc2)cc1Br | 4.8 | -5.9 | 19.5 | -10.2% | -36.6 | -46.5 | -11.1 | ? | -0.3 | 0.7
COc1cccc(N2C(=O)CC(N3CCN(c4ccc([N+](=O)[O-])cc4)CC3)C2=O)c1 (centres undefined) | -1.7 | -0.5 | -5.1 | . | 1.6 | 5.3 | 2.8 | -4.9 | -0.9 | -7.1
C/C(=N\NC(=S)Nc1cc(S(=O)(=O)N2CCOCC2)ccc1Cl)c1ccccc1F | 6.3 | 17.3 | 43.0 | 19.4% | -1.7 | 4.8 | 3.0 | 1.4 | -0.7 | 13.0
Cc1c(C(=O)NCc2ccc3c(c2)OCO3)oc2ccc(S(=O)(=O)N3CCCCC3)cc12 | . | -2.1 | ? | -3.9%&-0.2% | . | . | . | ? | -0.4 | -13.7
CN(C)S(=O)(=O)N1CCC(Cc2ccccc2)CC1 | . | -0.5 | -11.1 | 13.8% | . | . | . | 4.1 | -0.1 | -11.0
O=C(NCCN1CCN(C(=O)c2ccc(F)cc2)CC1)c1ccc(F)cc1 | -1.1 | -0.5 | 8.5 | . | 8.0 | 13.4 | -1.1 | 3.7 | 1.0 | -5.2
O=c1onc(-c2cccnc2)n1-c1ccccc1F | -1.3 | -12.2 | -14.7 | -0.9% | 1.5 | 3.4 | 4.6 | 6.8 | 0.5 | -3.1
COc1cc(C(N)=O)cc(Cl)c1OC | -1.3 | -3.2 | -0.1 | 3.5% | 16.9 | 17.5 | 2.5 | -1.9 | -0.5 | -14.3
COc1ccc(C(=O)N/N=C/c2ccc(OC)c(COc3c(F)c(F)cc(F)c3F)c2)cc1 | -2.1 | -1.4 | . | . | 1.0 | 24.2 | 3.7 | . | 1.8 | -4.3
COC(=O)c1sccc1NC(=O)COc1ccc(Cl)cc1 | -13.5 | 1.3 | 9.4 | ? | 2.3 | 4.2 | 3.1 | -2.2 | -3.7 | 2.1
O=C(Nc1ccccc1F)C(c1ccccc1)c1ccccc1 | -1.6 | -11.4 | 9.5 | . | -14.1 | -4.1 | -0.5 | -3.3 | 0.6 | 2.2
CN(C)/C=N/c1nc2ccc3c(c2s1)CCCC3 | -21.4 | 3.4 | -17.0 | . | -25.9* | 1.7* | 2.5* | 9.2 | -0.6 | 15.4
Cc1ccc2c(COC(=O)C34CC5CC(CC(C5)C3)C4)cc(=O)oc2c1 | . | 4.0 | 17.5 | -4.0% | . | . | . | 3.5 | -0.5 | 1.6
NC(=O)c1ccsc1NC(=O)C1CCN(S(=O)(=O)c2cccs2)CC1 | 2.9 | -0.8 | -16.7 | -8.9% | -10.1 | -6.2 | -2.2 | -0.8 | 1.2 | -1.3
O=C(CNC(=O)C12CC3CC(CC(C3)C1)C2)OCC(=O)N1CCCCC1 | -1.6 | -0.2 | -12.5 | 4.4% | 9.8 | 10.5 | 3.0 | 9.2 | -0.5 | 9.0
O=C(c1ccc2c(c1)OCO2)N1CCc2ccccc21 | -6.2 | -5.4 | -27.7 | . | -3.6 | 1.2 | -2.0 | -0.9 | -0.8 | -5.2

Screening data from PubChem BioAssay.
